# VDR inh – inhibitors of human vitamin D receptor. P11473. VDR-SRC2-3 peptide fluorescence polarization, 2 h. Potency, µM, inactives show max response, negative = inhibition, most hits filed as inhibitors. 0.93% of 400,000 active; active means well fitted inhibition curve with a large enough effect; inconclusive means small, poorly fitted or top-dose-only effect, or another doubt; inactive means no such curve, though single readings can be large or run the other way; further: series mostly up to about 120 µM
# Target sequence (P11473 whole entry, looked up): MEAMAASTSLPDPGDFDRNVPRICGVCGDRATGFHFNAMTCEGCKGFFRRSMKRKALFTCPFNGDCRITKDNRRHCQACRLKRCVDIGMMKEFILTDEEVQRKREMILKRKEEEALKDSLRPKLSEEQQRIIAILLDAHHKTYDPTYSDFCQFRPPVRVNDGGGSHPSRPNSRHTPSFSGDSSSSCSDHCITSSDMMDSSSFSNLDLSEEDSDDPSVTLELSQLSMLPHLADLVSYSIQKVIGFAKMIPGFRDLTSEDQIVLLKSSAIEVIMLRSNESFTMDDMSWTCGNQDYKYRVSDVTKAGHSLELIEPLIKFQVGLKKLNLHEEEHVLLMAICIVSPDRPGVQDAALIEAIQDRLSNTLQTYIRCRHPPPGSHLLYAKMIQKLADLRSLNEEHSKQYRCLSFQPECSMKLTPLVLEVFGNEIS
#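 Inhibition of the VDR/SRC2-3 peptide interaction is quantified by fluorescence polarization. Compounds (23 nl, pintool) incubate with the reagents for 2 hours at ambient room temperature.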
# The depositor's hits bear a star; ? = inconclusive. On the % scale 0 is the no-effect control and ±100 the full control effect; potency means the concentration at half of the fitted maximal effect.
VDR inh | SMILES
-29.6% | Cc1ccc(C2=Nn3c(COc4ccc(Cl)cc4)nnc3SC2CC(=O)O)cc1 (centres undefined)
11.2% | CCOC(=O)N1CCN(Cc2nc(Cc3cccc(F)c3)no2)CC1
-10.2% | CCOC(=O)c1[nH]c2ccccc2c1NC(=O)CC
9.7% | CCC(=O)N1c2ccccc2CC1C(=O)NCCCN1CCN(c2ccc(F)cc2)CC1 (centres undefined)
-14.7% | O=C(Nc1ccc(F)cc1)c1ccc(C(=O)N2CCOCC2)cc1
24.3% | COc1cc(C(=O)Nc2nc3ccc(S(C)(=O)=O)cc3s2)cc(OC)c1C
10.4% | COc1ccc(CCNC(=O)c2cccc3c2C(=O)N(C2CCCCC2)C3)cc1OC
11.4% | Cc1cccc(NC(=S)NC(=O)c2ccco2)c1C

# (cont.)
VDR inh | SMILES
-19.0% | Cc1ccc(S(=O)(=O)N2[C@@H](c3ccc(C(C)(C)C)cc3)C(C(=O)O)=CC[C@H]2c2ccc3c(c2)OCO3)cc1
3.3% | CC(=O)Nc1ccc(NC(=O)CSc2nnc3ccc(-c4ccc(F)cc4)nn23)cc1
6.7% | CCOc1ccc(-c2cc(NC(=O)Cn3ncc4c3-c3ccccc3OC4)on2)cc1OCC
1.8% | O=C(Nc1nnc(Cc2ccc([N+](=O)[O-])cc2)s1)Nc1ccccc1F
-11.1% | Cc1ccc(C)c(C(=O)CSc2nnnn2-c2cccnc2)c1
-0.8% | O=C(Cc1cccs1)Nc1cccc(C(=O)Nc2ccc(C(=O)O)cc2)c1
16.7% | CCCCn1cnc2c(SCc3ccc(Cl)cc3)nc(N)nc21
15.8µM* | COCc1cc(O)c(O)c(O)c1-c1c(COC)cc(O)c(O)c1O

# Other results.
VDR inh | SMILES
-0.7% | CCC(C)NC(=O)CCSc1nc(-c2ccc(OC)cc2)cc(C(F)(F)F)n1 (centres undefined)
-12.8% | Cc1ccc2nc(Cc3ccc(N)cc3)oc2c1
-19.3% | O=C(COc1cc2oc(=O)c3c(c2cc1Cl)CCC3)NCCCN1CCOCC1
2.8% | Cc1ccc(S(=O)(=O)N2CCN(CCOc3cccc(C)c3)CC2)cc1
-9.3% | CN(C)c1nc2ccccc2c(N)c1-c1ccccc1
-1.1% | CN(C)c1ccc(/C=C2/NC(=O)NC2=O)cc1
5.6% | Cc1cc(-c2ccc(S(=O)(=O)N3CCN(c4cccc(C(F)(F)F)c4)CC3)s2)on1
4.4% | CC(=O)N/C(=C\c1cccs1)C(=O)O

# (next part)
VDR inh | SMILES
-10.0% | Oc1ccc2ccccc2c1C=Nc1ccccc1-c1nc2ccccc2[nH]1
? | Cn1c(N=NC(=O)c2ccccc2)c(O)c2ccccc21
11.8% | CSc1ccc(CCNC(=O)C2CCN(c3ncnc4c3nc3n4CCCCC3)CC2)cc1
7.4% | Cc1c(C(=O)Nc2nc(-c3ccc(F)cc3)ns2)oc2ccc(Br)cc12
-17.1% | CCOc1ccccc1NC(=O)c1c(NC(=O)COc2ccc(Cl)cc2)sc2c1CCCCC2
21.5% | COC(=O)c1ccc(CN2C(=O)NC(CC(C)C)C2=O)cc1 (centres undefined)
1.1% | O=C(Cc1ccc(F)cc1)NCCc1csc(-c2ccc(C(F)(F)F)cc2)n1
8.4% | CCOC(=O)N1CCN(Cc2nc3cc([N+](=O)[O-])ccc3n2C)CC1

# The closing 3 compounds of the section above come first, to join the parts.
VDR inh | SMILES
21.5% | COC(=O)c1ccc(CN2C(=O)NC(CC(C)C)C2=O)cc1 (centres undefined)
1.1% | O=C(Cc1ccc(F)cc1)NCCc1csc(-c2ccc(C(F)(F)F)cc2)n1
8.4% | CCOC(=O)N1CCN(Cc2nc3cc([N+](=O)[O-])ccc3n2C)CC1
-8.1% | O=C(CSc1nnc2ccccn12)Nc1ncc(Cl)cc1Cl
-7.0% | Cn1ccc(C(=O)N/N=C/c2c[nH]c3ccccc23)n1
7.2% | CC(=O)N1c2ccc(S(=O)(=O)NCC3CCC(C(=O)NCCC(C)C)CC3)cc2CC1C (centres undefined)
-15.2% | CC1CCCN(S(=O)(=O)c2ccc(NC(=O)C3CC(=O)N(C(C)(C)C)C3)cc2)C1 (centres undefined)
-9.2% | COc1cc(C(=O)NCC(c2cccs2)N(C)C)cc(Cl)c1OC(C)C (centres undefined)
11.4% | CCC(C)N(C(=O)Cn1c(Cl)nc2c1c(=O)n(C)c(=O)n2C)C1CCS(=O)(=O)C1 (centres undefined)
-9.6% | CC(=O)c1ccc(OCC(=O)OCC(=O)Nc2sccc2C(N)=O)cc1
-5.7% | Cc1cc(C)c(Cn2c3ccccc3c3cnn(CC(=O)N4CCCCC4)c(=O)c32)c(C)c1

# An excerpt of these results, as tab-separated lines.
SMILES	VDR inh
CC1CCCN(S(=O)(=O)c2ccc(NC(=O)C3CC(=O)N(C(C)(C)C)C3)cc2)C1 (centres undefined)	-15.2%
COc1cc(C(=O)NCC(c2cccs2)N(C)C)cc(Cl)c1OC(C)C (centres undefined)	-9.2%

# Next records:
VDR inh | SMILES
1.1% | CCOCCCn1c(=NC(C)=O)c(C#N)cc2c(=O)n3ccccc3nc21
10.4% | O=C(COC(=O)c1ccco1)c1ccc(Cl)cc1
12.2% | COC(=O)Cc1c(O)ccn(Cc2ccc(OC)c(OC)c2)c1=O
-22.3% | COc1cc2c(cc1OC)C(c1ccc(OC)c(OC)c1OC)CC(=O)N2 (centres undefined)
16.4% | Cc1cc(=O)[nH]c(SCC(=O)c2ccc3c(c2)NC(=O)CO3)n1
-6.7% | Cc1[nH]c2ccc(F)cc2c1CCN(Cc1ccco1)C(=S)NC(C)(C)C
-1.1% | CN(C)c1ccc(C(=O)c2ccccc2C(=O)O)cc1[N+](=O)[O-]
-13.0% | CCOc1ccc(C(=O)NNC2CC(=O)N(Cc3ccc(Cl)cc3)C2=O)cc1OC (centres undefined)

# Later entries.
VDR inh | SMILES
-8.4% | CN1CCN(C(=O)CN(C2CCCCC2)S(=O)(=O)c2ccc(Br)cc2)CC1
-14.7% | Cc1cc(-n2c(C)cc(C(=O)CSc3ccccn3)c2C)no1
-11.0% | CCn1c(SCC(=O)Nc2cc(S(=O)(=O)N3CCOCC3)ccc2OC)nnc1-c1ccncc1
5.7% | Cc1ccc(S(=O)(=O)N(C)CC(=O)N2CCCC2)cc1
? | CCC(C)NC(=O)C1(NC(=O)Nc2ccccc2)CCCCC1 (centres undefined)
14.2% | Cc1cc(SCC(=O)N2CCCC2)nc2ccccc12
-12.1% | CCN(CC)S(=O)(=O)c1cccc(-c2n[nH]c(=S)n2CC(C)C)c1
? | COC(=O)c1ccc(C2NC(C(=O)O)CS2)cc1 (centres undefined)

# Going on with the list.
VDR inh | SMILES
-15.8% | Cc1c(NC(=O)c2ccc3nsnc3c2)cccc1[N+](=O)[O-]
-5.6% | O=C(Nc1cc([N+](=O)[O-])ccc1O)c1cccc([N+](=O)[O-])c1
-11.1% | N#CC(c1ccc(Cl)cc1)c1cccc(Cl)n1 (centres undefined)
0.7% | CC(=O)NC12CC3CC(C1)CC(C(=O)OCC(=O)Nc1ncc(Cl)cc1Cl)(C3)C2
17.5% | Cc1cc(C)c2cc(CN(Cc3cccnc3)C(=O)c3ccc(F)cc3)c(Cl)nc2c1
-21.5% | Cc1nn(CC(=O)Nc2ccc(N(C)C)cc2)c(C)c1[N+](=O)[O-]
3.5% | COc1ccccc1CNC(=O)C1CCC(=O)N(CCCN2CCCC2=O)C1 (centres undefined)
-13.9% | COc1ccc(S(=O)(=O)NCc2ccco2)cc1C(=O)N1CCCCC1

# Additional records follow:
VDR inh | SMILES
16.1% | CC(=O)c1cccc(NS(=O)(=O)c2ccc(C(=O)Nc3ccccc3)cc2)c1
7.7% | Cc1ccc(S(=O)(=O)CC(=O)c2ccc(C)c([N+](=O)[O-])c2)cc1
-12.9% | COc1ccc(C2Nc3ccccc3C(=O)N2NS(=O)(=O)c2ccccc2)c(OC)c1 (centres undefined)
13.9% | COc1cc(C(=O)N2CCC(NC(=O)C(Cc3ccc(C(C)C)cc3)NC(C)=O)CC2)cc(OC)c1OC (centres undefined)
-4.0% | COc1ccc(OC)c(CNC(=O)c2cnc3c(C)cccn3c2=O)c1
-5.6% | COc1ccc(NC(=O)Nc2ccc(Br)c(C)c2)cc1
2.4% | COc1ccc(C2=NOC(C(=O)NCc3ccc(F)cc3)C2)cc1 (centres undefined)
-11.8% | O=C(c1ccccc1)C(O)(Cc1ccccc1)c1ccccc1 (centres undefined)

# (continued)
VDR inh | SMILES
-12.4% | C#Cc1cccc(C(=O)NC2CCCN(C3Cc4ccccc4C3)C2)c1 (centres undefined)
-2.9% | CCC(=O)c1ccccc1OCCCN1CCC(Cc2ccccc2)CC1
0.4% | O=C(O)c1c(Cl)c(Cl)c(Cl)c(Cl)c1C(=O)N1CCCC1
44.7µM* | CCN1C(=O)[C@H]2[C@H]3CN=C(SCC(=O)c4ccccc4)N3[C@@](C)(C(=O)OC)[C@H]2C1=O
-24.8% | COc1ccccc1NC(=O)C1=C(C)Nc2nc(SCc3ccccc3)nn2C1c1cccs1 (centres undefined)
-11.2% | O=C(Nc1ccc(F)c(F)c1)C1CCCN1S(=O)(=O)c1cccc2nsnc12 (centres undefined)
5.9% | CCOCCCNC(=S)N1CCCN(c2nc3cc(C)ccc3cc2C#N)CC1
-3.5% | COc1ccc(NS(=O)(=O)c2cc(C(=O)OC(C)C(=O)N3CCOCC3)ccc2Cl)cc1 (centres undefined)

# Reformatted as comma-separated lines: entries from further up.
canonical_smiles,VDR inh
Cc1cc(C)c2cc(CN(Cc3cccnc3)C(=O)c3ccc(F)cc3)c(Cl)nc2c1,17.5%
Cc1nn(CC(=O)Nc2ccc(N(C)C)cc2)c(C)c1[N+](=O)[O-],-21.5%
COc1ccccc1CNC(=O)C1CCC(=O)N(CCCN2CCCC2=O)C1 (centres undefined),3.5%
COc1ccc(S(=O)(=O)NCc2ccco2)cc1C(=O)N1CCCCC1,-13.9%
CC(=O)c1cccc(NS(=O)(=O)c2ccc(C(=O)Nc3ccccc3)cc2)c1,16.1%

# Next structures:
VDR inh | SMILES
-12.4% | CC(c1ccccc1)N(C)C(=O)CSc1nnc(C2CC2)n1C1CC1 (centres undefined)
-20.7% | COc1cc(OC)cc(C(=O)Nc2ccc(CN3CCCCC3)cc2)c1
9.7% | Cc1ccc(N2CC(C(=O)Nc3ccc(S(=O)(=O)Nc4ncccn4)cc3)CC2=O)cc1C (centres undefined)
? | CN(C)CCN(Cc1ccc(Cl)cc1)c1ccccn1
13.4% | CC(OC(=O)CC1CC2CCC1C2)C(=O)Nc1cccc(S(=O)(=O)N2CCOCC2)c1 (centres undefined)
-20.0% | Cc1c(N(C(=O)c2ccccn2)C2(C(=O)NC3CCCC3)CCCCC2)c(=O)n(-c2ccccc2)n1C
5.8% | CCSc1ncc(Cl)c(C(=O)Nc2c(C(=O)Nc3ccc(Cl)cc3)oc3ccccc23)n1
? | Cc1ccc(Cn2c(S(=O)(=O)O)nc3ccccc32)cc1

# Next structures
VDR inh | SMILES
5.3% | CCc1ccc(NC(=O)CCC(=O)c2ccccc2)cc1
-23.8% | CC(C)[C@H](NC(=O)c1ccccc1Cl)C(=O)OCC(=O)NCc1ccc2c(c1)OCO2
-6.8% | COc1ccc(NC(=O)c2ccc3snnc3c2)cc1
-1.5% | COc1cc(O)cc(O)c1
0.1% | Cc1ccc(OCC(=O)Nc2c3c(nn2C(C)(C)C)CS(=O)(=O)C3)cc1
-5.6% | CCOC(=O)c1c(C)[nH]c(N=Nc2cccc(OC)c2)c1C
-13.8% | CCOC(=O)C1CCN(S(=O)(=O)c2c(C)n(C)c(=O)n(C)c2=O)CC1
4.7% | NC(=O)c1nsc(C(=O)N(Cc2ccco2)C(C(=O)NCc2ccccc2)c2ccc(O)cc2)c1N (centres undefined)

# Continuation:
VDR inh | SMILES
13.1% | COc1cc(OC)cc(C(=O)N(Cc2ccco2)c2c(N)n(Cc3ccccc3)c(=O)[nH]c2=O)c1
-8.5% | Cc1cc(C)cc(N(CC(=O)NCc2ccco2)C(=O)c2snc(C(N)=O)c2N)c1
11.8% | CCc1ccc2nc(N(Cc3cccnc3)C(=O)c3ccc(C#N)cc3)sc2c1
-1.3% | C/C(CCc1ccccc1)=N\NC(=O)c1ccc(CN2CCOCC2)cc1
? | Cc1ccc(S(=O)(=O)N2CCC(C(=O)NN3CCCCC3)CC2)cc1
-6.0% | S=C(c1ccc(-c2ccccc2)cc1)N1CCOCC1
0.5% | Cn1cccc1Cc1nnc(SCC(=O)NCc2ccccc2Cl)n1-c1ccc(F)cc1
18.0% | COc1ccc(/C(O)=C2/C(=O)C(=O)N(c3ccccn3)C2c2ccc(OC)cc2)cc1 (centres undefined)

# (next part)
VDR inh | SMILES
-25.1% | COCCNC(=S)N(CCO)Cc1cc2cc3c(cc2[nH]c1=O)OCO3
-27.1% | CCOc1ccc2c(c1)c1nnc(SCC3CCCO3)nc1n2C (centres undefined)
13.5% | COc1c(Cl)cc(-c2noc(C)c2C(=O)NCCc2ccc(C)cc2)cc1Cl
-13.5% | Cc1ccccc1NS(=O)(=O)c1cc2c(cc1C)NC(=O)CO2
-0.4% | COCCN(C(=O)CSc1nnc2cc(C)c3ccccc3n12)c1c(N)n(Cc2ccccc2)c(=O)[nH]c1=O
-14.7% | Cn1ccnc1SCC(=O)Nc1cc(F)ccc1F
-12.9% | Cc1cccc(NC(=O)CN2C(=O)COc3ccc(Cl)cc32)c1
9.2% | CSc1cccc(NC(C)C(=O)NCc2ccccc2)c1 (centres undefined)

# Next section
VDR inh | SMILES
-16.7% | O=C(CSc1cccc2cccnc12)N1CCCC1
-11.6% | CC(=O)N1CC(C)Sc2ccc(S(=O)(=O)NC3CCCCC3C)cc21 (centres undefined)
-7.6% | O=C(c1ccccc1)N1N=C(c2ccccc2)CC1c1cccs1 (centres undefined)
6.5% | COc1ccc(OC)c(CNc2nc3ccccc3n2CCN2CCCCC2)c1
-19.7% | COc1cccc(C(=O)NCCS(=O)(=O)NCC2CCCO2)c1 (centres undefined)
-0.7% | CC(C)CNC(=O)c1ccc(NC(=O)c2ccccc2[N+](=O)[O-])cc1

# These rows are one share of the data; count on the stated rates, not on these rows.
